Arbovirus anti – arbovirus infection inhibition | AID 1251 | inhibition, % at 10 µM | arbovirus infection cell-based antiviral screen | 200,000 tested, 0.37% active;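 active = inhibition from about 30%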;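 note: bluetongue infection of BSR cells; cell survival read as ATP light after 72 h; 0% = infected wells without compound and 100% = uninfected wells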
Mtb betalactam – beta-lactam sensitization of Mtb H37Rv. M. tuberculosis H37Rv growth with meropenem, percent inhibition; hits of this screen are not shown here. inhibition, % at 25 µM. 330,000 tested, 0.27% active. AID 434955;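 active = about 74% or more and at least 40 points above the plate without the antibiotic, then above 30% in a dose series; inconclusive = first-round hits that could not be retested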;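 note: growth measured after seven days incubation then overnight dye step; 0% = bacteria only wells and 100% = bacteria with antibiotic; twin plates without the antibiotic show which effects depend on it; some results filed as inactive read as strong as hits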
YopH inh – YopH (Yersinia) phosphatase inhibition | fluorescence Ex485/Em525 | inhibition, %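 (about 10 µM by stock and volumes)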 | 140,000 tested, 0.16% active | AID 898;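 active = inhibition of 50% or more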;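 note: controls were vehicle for no effect and minimum signal wells for full effect; inactives centre near -20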
RecA intein inh – blocks M. tuberculosis RecA intein splicing; P9WHJ3; cell-free RecA intein splicing, fluorescence; inhibition, %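 (about 9 µM by stock and volumes)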; 290,000 tested, 0.75% active; AID 2221; in the data active = inhibition above about 30%; inconclusive = no clear call, values can overlap the other calls;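 note: 0% = vehicle wells and 100% = reference inhibitor control wells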
Target sequence (P9WHJ3 whole entry, looked up): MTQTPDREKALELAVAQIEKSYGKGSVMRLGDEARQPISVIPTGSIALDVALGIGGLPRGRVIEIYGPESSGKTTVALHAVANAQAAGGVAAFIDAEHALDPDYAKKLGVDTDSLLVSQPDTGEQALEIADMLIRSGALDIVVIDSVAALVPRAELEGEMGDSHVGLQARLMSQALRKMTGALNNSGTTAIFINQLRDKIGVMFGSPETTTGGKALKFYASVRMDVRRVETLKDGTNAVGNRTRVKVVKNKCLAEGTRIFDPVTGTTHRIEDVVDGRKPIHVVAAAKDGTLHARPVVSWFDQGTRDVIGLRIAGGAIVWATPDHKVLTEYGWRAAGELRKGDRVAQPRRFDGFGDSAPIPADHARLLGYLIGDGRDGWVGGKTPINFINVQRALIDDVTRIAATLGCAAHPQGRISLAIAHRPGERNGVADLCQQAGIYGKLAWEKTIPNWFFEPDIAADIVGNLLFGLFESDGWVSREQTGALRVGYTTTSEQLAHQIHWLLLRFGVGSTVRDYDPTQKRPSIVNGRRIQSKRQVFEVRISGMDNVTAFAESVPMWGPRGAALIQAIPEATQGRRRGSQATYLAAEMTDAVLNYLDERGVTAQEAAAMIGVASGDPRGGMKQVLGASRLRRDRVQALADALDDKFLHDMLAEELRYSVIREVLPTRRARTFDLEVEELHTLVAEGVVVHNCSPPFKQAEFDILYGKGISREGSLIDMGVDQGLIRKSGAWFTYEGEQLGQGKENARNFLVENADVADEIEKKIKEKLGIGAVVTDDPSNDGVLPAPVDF
Mtb H37Rv – M. tuberculosis H37Rv growth inhibitors, H37Rv strain (AID 1626) | M. tuberculosis H37Rv growth inhibition; higher % means a stronger effect | inhibition, % at 10 µM; hits with a dose series show IC50 in µM | 220,000 tested, 0.95% active;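 active = confirmed in a dose series; inconclusive = inhibition above 80% but not taken into the dose series; inactive = below 80% or under 30% at every dose of the series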;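 note: bacteria incubated seven days before Alamar blue readout; 0% = bacteria only wells and 100% = bacteria with antibiotic wells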
Arbovirus anti repeat – also measured in Arbovirus anti; calls as there; inhibition, %; measured here: 10K subset replicate screen; many hits read low in the repeat;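 first of two repeat runs on a subset; 0% = infected and 100% = uninfected wells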
Active calls of the source: *; ? = inconclusive; . = not tested or not shown. A portion of the library; count on the stated rates, not on these rows.

SMILES	Arbovirus anti	Mtb betalactam	YopH inh	RecA intein inh	Mtb H37Rv	others
CC(C)Nc1nc(Oc2ccc(Cl)cc2)cc(C(F)(F)F)n1	7	3	-30	2.2	8%
O=C(c1ccccc1Cl)N1CCN(S(=O)(=O)N2CCCCC2)CC1	.	-5	.	1.5	.
COc1ccc(C(=O)NCC2OCCc3ccccc32)cc1OC (centres undefined)	11	0	.	0.1	-1%
CNC(=O)Nc1ccccc1NC(=O)NC	2	-24	-130	0.6	-4%
O=S(=O)(NCCc1ccccc1)c1ccc(Br)s1	.	-2	.	4.9	.
CCn1c(SCC(=O)NNC(=O)c2ccc(C)cc2)nnc1-c1ccncc1	.	-1	-9	-0.2	3%
CCCCNC(=O)/C=C1\Sc2ccccc2NC1=O	4	5	-20	-2.7	-1%
O=[N+]([O-])c1ccc(O)c(/C=N/n2cnnc2)c1	-14	-4	-27	-0.7	3%
Cc1ccc(Cn2nc(C)c(C(=O)NCC(c3cccs3)N3CCOCC3)c2Cl)cc1 (centres undefined)	.	-10	.	-3.6	.
COCCOC(=O)c1[nH]c2c(c1C)C(=O)CC(c1ccc(F)cc1)C2 (centres undefined)	-28	-5	-43	0.7	-6%
CC(OC(=O)Cn1cnc2c1c(=O)n(C)c(=O)n2C)C(=O)N(C)c1ccccc1 (centres undefined)	.	-8	.	0.7	.
COc1ccc(/C=N/N=C2/NC(=O)C(CC(=O)NC(C)C)S2)cc1 (centres undefined)	1	-4	.	-0.5	5%
COCCn1c(SCC(=O)Nc2sc(C)c(C)c2C#N)nnc1-c1ccc(OC)cc1	7	11	-54	-2.4	-12%
CC12CCC(=O)N1C(C(=O)OCC(=O)Nc1cccc(S(=O)(=O)N3CCCCCC3)c1)CS2 (centres undefined)	5	4	-22	-3.5	-1%
COC(=O)c1[nH]c2ccccc2c1Sc1ccccc1	.	-4	.	0.6	.
Cc1cccc(N2CCN(Cc3oc(CO)cc(=O)c3O)CC2)c1C	-18	-6	-7	0.1	-8%
CC1C/C(=N/N=C2/NC(=O)CS2)CC(C)(C)C1 (centres undefined)	-2	95	-31	-0.5	14%
CN1C(=S)SC(/[N+]([O-])=C/c2ccc(Cl)cc2)C1(C)C (centres undefined)	.	-4	.	-0.2	13%
COC(=O)c1sc(C(F)(F)F)c(-c2ccccc2)c1S(=O)(=O)NC(C)(C)C	.	0	.	4.0	-3%
CCOc1cc(/C=C/C(=O)c2ccc3c(c2)OCCO3)ccc1OCC(=O)N(C)C	.	31	.	1.9	.
CN(CC(=O)Nc1cccc(F)c1)C(=O)CNS(=O)(=O)c1ccc(N(C)C)c([N+](=O)[O-])c1	.	-7	.	-3.9	.
COCCOc1ccc(C(F)(F)F)cc1NC(=O)COC(=O)c1c(C)noc1C	-4	?	-17	-3.8	5%
CCCC(=O)OCC(=O)Nc1ccc(OC(F)F)cc1	7	6	-19	-2.9	-7%
COc1ccccc1NC(=O)C1=C(C)Nc2nc(-c3cccs3)nn2C1c1cccnc1 (centres undefined)	-3	2	-9	-0.3	-3%	Arbovirus anti repeat=-2
COc1cccc(-c2cc(C(F)(F)F)c(C#N)c(=O)[nH]2)c1	24	-4	.	-16	0%
CN1C(=O)CC(c2ccccc2)Nc2ccccc21 (centres undefined)	.	-3	.	-12	-4%
CC1=C(C(N)=O)C(c2ccccc2[N+](=O)[O-])n2ncnc2N1 (centres undefined)	.	-3	.	-5.5	.
COc1ccccc1-c1nc(C(N)=O)c2[nH]c(=O)n(-c3cccc(C)c3)c2n1	13	46	-7	0.5	3%
COc1cc(CSc2ncn[nH]2)c(OC)cc1CSc1ncn[nH]1	5	-8	-43	-1.4	-21%
O=C(NC1CCCC1)C1CCCN(C(=O)Nc2ccccc2)C1 (centres undefined)	.	-3	.	5.3	.
CC(C)C[C@H](NC(=O)c1nc[nH]c1C(=O)NCC(=O)OCc1ccccc1)C(=O)OCc1ccccc1	.	-2	.	4.8	.
CCC(C)NS(=O)(=O)c1ccc(OCC(=O)N2CCC(C)CC2)cc1 (centres undefined)	2	2	-18	0.2	-4%
COc1ccc(C2CC(c3ccc(Cl)cc3)=NN2C(C)=O)cc1 (centres undefined)	.	28	.	5.4	.
CSCCC(N=C(NS(=O)(=O)c1ccc(C)cc1)c1ccccc1)C(=O)O (centres undefined)	.	-4	.	-0.7	-11%
COc1cccc(N2CCN(c3ccc4nnc(CCC(=O)Nc5ccccc5OC)n4n3)CC2)c1	.	4	.	-1.7	.
c1ccc(-c2noc(-c3ccc4c(c3)OCO4)n2)cc1	-5	4	.	-46	4%

Some of these compounds in order of SMILES length, highest first:
SMILES	Arbovirus anti	Mtb betalactam	YopH inh	RecA intein inh	Mtb H37Rv	others
COc1cccc(N2CCN(c3ccc4nnc(CCC(=O)Nc5ccccc5OC)n4n3)CC2)c1	.	4	.	-1.7	.
COc1ccccc1-c1nc(C(N)=O)c2[nH]c(=O)n(-c3cccc(C)c3)c2n1	13	46	-7	0.5	3%
CCC(C)NS(=O)(=O)c1ccc(OCC(=O)N2CCC(C)CC2)cc1 (centres undefined)	2	2	-18	0.2	-4%
COc1ccc(C2CC(c3ccc(Cl)cc3)=NN2C(C)=O)cc1 (centres undefined)	.	28	.	5.4	.
O=C(NC1CCCC1)C1CCCN(C(=O)Nc2ccccc2)C1 (centres undefined)	.	-3	.	5.3	.
c1ccc(-c2noc(-c3ccc4c(c3)OCO4)n2)cc1	-5	4	.	-46	4%

Further records follow:
SMILES	Arbovirus anti	Mtb betalactam	YopH inh	RecA intein inh	Mtb H37Rv	others
COc1cccc(CN2CC(C(=O)NCCc3ccc(C)o3)CCC2=O)c1 (centres undefined)	.	-9	.	1.5	.
CCOc1ccc(NC(=O)c2cc(OC)nc3ccccc23)cc1	.	0	.	-1.2	.
O=C(/C=C/c1ccco1)NCCc1ccccc1	4	-2	.	1.5	-9%
COc1cccc(OC)c1OCC(O)CN1CCN(c2ccccc2)CC1 (centres undefined)	4	-3	-9	1.6	-12%
O=C(c1cc2cc(Br)ccc2[nH]1)N1CCc2ccccc21	.	4	.	-2.1	.
CC(C)CCC(C)NC(=O)C1CCN(S(=O)(=O)/C=C/c2ccccc2)CC1 (centres undefined)	.	-3	.	-1.0	.
COc1ccc(N(CC(O)CN2C(=O)NC(C)(C)C2=O)S(=O)(=O)c2ccc(C)cc2)cc1 (centres undefined)	13	-1	12	2.7	-1%
O=C(Nc1cc2c(cc1C(=O)O)OCCCO2)c1ccc(C(F)(F)F)cc1	.	66	.	0.1	.
CCCCS/C(N)=N/N=C/c1ccccc1O	6	-5	-28	4.7	-3%
COc1ccc(CN2CCN(Cc3cccc(Oc4ccccc4)c3)CC2)c(OC)c1OC	.	11	.	7.0	.
CCOc1ccc(NC(C)C(=O)N/N=C/c2cccs2)cc1 (centres undefined)	0	44	2	-2.9	1%
O=C(COc1ccccc1)N/N=C/c1cc2c(cc1[N+](=O)[O-])OCO2	0	12	-18	-1.7	65%

Next section; it opens with the 2 that closed the last part.
SMILES	Arbovirus anti	Mtb betalactam	YopH inh	RecA intein inh	Mtb H37Rv	others
CCOc1ccc(NC(C)C(=O)N/N=C/c2cccs2)cc1 (centres undefined)	0	44	2	-2.9	1%
O=C(COc1ccccc1)N/N=C/c1cc2c(cc1[N+](=O)[O-])OCO2	0	12	-18	-1.7	65%
Cc1ccc(NC2CCCN(C(=O)c3cnc4ccccn4c3=O)C2)cc1C (centres undefined)	.	-1	.	-5.5	.
Cc1occc1-c1nnc(SCC(=O)c2ccc(Cl)cc2)n1C	3	0	-39	.	7%
N#Cc1nc(COc2cccc(Cl)c2)oc1NCc1ccncc1	-5	2	-27	-2.4	-3%
Cc1c(C=O)c2cc(OCc3ccccc3)ccc2n1C	.	-4	.	0.5	.
OCCCNc1ncnc2sc3c(c12)CCN(Cc1ccccc1)C3	.	-1	.	-18	.
O=C(COC(=O)CNC(=O)c1ccc(Br)o1)Nc1ccccc1OC(F)F	9	1	.	0.0	-8%
Cc1oc2c(c1C(=O)O)C(=O)c1ccccc1C2=O	-7	-2	.	68*	3%
N=c1oc2ccccc2cc1-c1nc(-c2ccc(Cl)cc2)cs1	11	6	-19	-15	6%
CCn1cc(C(=O)OCC(=O)c2ccc(Cl)cc2)c(=O)c2ccc(C)nc21	-11	-17	.	1.7	-8%
Cc1ccc(NC(=S)NC(=O)c2ccc(F)cc2)cc1S(=O)(=O)Nc1ccccc1Cl	5	7	-18	11	78%
COc1ccc(OC)c(NC(=O)CCN2CCCC(C)C2)c1 (centres undefined)	4	-1	-36	0.9	-13%
O=C(CSc1nnnn1-c1ccccc1)Nc1nsc(-c2ccc(Cl)cc2)n1	-2	26	-20	0.5	2%
Cc1cc(C)cc(NC(=O)CSc2nc(=O)n3cc(C)ccc3n2)c1	.	-16	.	2.2	.
CN(CC(=O)Nc1ccc(F)cc1)C(=O)COc1ncnc2ccccc12	.	-16	.	2.0	-9%
CC1CN(C(=O)CCC(=O)NC2CCCCC2)c2ccccc2S1 (centres undefined)	.	?	.	1.4	.
CCn1c(CCNC(=O)c2cccs2)n[nH]c1=S	-13	-9	-17	-2.2	-2%
COc1ccccc1NS(=O)(=O)c1cc(NC(=S)Nc2cc(C)cc(C)c2)ccc1Cl	10	2	-8	9.4	14%
CC1Cc2ccccc2N1C(=O)CSc1nnnn1C(C)C (centres undefined)	2	1	-57	.	3%
CCOc1ccc(CN2CCNC(=O)C2CC(=O)N(C)Cc2nonc2C)cc1 (centres undefined)	.	-8	.	1.0	.
CCCCS(=O)(=O)N1CN(S(=O)(=O)CCCC)C2NC(=O)NC21 (centres undefined)	15	-12	-12	0.0	-6%
CCOC(=O)C1CCN(C(=O)c2cc(S(=O)(=O)N3CCOCC3)c(Cl)cc2Cl)CC1	2	-11	-47	4.6	-18%
Cc1c(NC(=O)CSc2ccc(Cl)cc2)cccc1-c1nc2cc(Cl)ccc2o1	-1	1	-24	0.0	-2%
Cc1nc2oc3c(NCC4CCCO4)ncnc3c2c2c1COC(C)(C)C2 (centres undefined)	3	-2	-39	0.3	-12%
Cc1ccc2c(=O)[nH]c(Cc3ccccc3C(=O)O)nc2c1	.	-2	.	-2.0	1%
Cn1cccc1/C=C1\SC(=S)N(NC(=O)c2ccc(Cl)cc2)C1=O	-3	-7	-30	.	6%
CC(Oc1ccc(Br)cc1)C(=O)NCC(C)(C)N1CCOCC1 (centres undefined)	.	0	.	2.5	.
CC(C)(C)C1CCC(=NNc2ccc(S(N)(=O)=O)cc2[N+](=O)[O-])CC1 (centres undefined)	-6	3	-27	-1.4	-2%
Cc1cccc(NC(=O)c2ccc(N(C)C3CCCCC3)c([N+](=O)[O-])c2)n1	-3	26	-18	0.0	-1%
CCN(CC(=O)Nc1ccccc1C(F)(F)F)C(=O)c1ccccc1Cc1ccccc1	.	-7	.	4.6	.
Cc1cccc(NC(=O)CSc2nnc(NC(=O)CN3CCCCC3)s2)c1	2	6	-29	-2.3	0%
COc1ccccc1N1CCN(c2ncnc3sc(C)c(-c4ccccc4)c23)CC1	.	-2	.	-0.3	.
O=S(=O)(c1ccc2ccccc2c1)N1CCN(C(=S)Nc2ccc(F)c(Cl)c2)CC1	-5	1	-15	2.4	8%
COc1cc(/C=N/Nc2nc(=O)[nH]nc2C)cc([N+](=O)[O-])c1O	.	1	.	1.0	0%
COC(=O)[C@@]12CCCCN1[C@H](c1ccc(SC3CCCCC3)cc1)[C@@H]1C(=O)N(C)C(=O)[C@@H]12	.	-15	.	-1.2	.
O=C(CN(Cc1ccccc1)C1=NCCS1)c1ccc(Cl)cc1	10	0	-17	0.6	2%
CC(C)NOC(=O)c1ccc(Cl)cc1	-3	-2	.	-0.4	6%
Cn1c(=O)c2c(nc(Sc3ncnn3CC(=O)N3CCOCC3)n2C)n(C)c1=O	.	4	.	0.0	-5%
CCOC(=O)C1CCCN(C(=O)CCNC(=O)Cn2ccc3ccccc3c2=O)C1 (centres undefined)	.	2	.	0.3	.
Cc1cc(-c2ccco2)n(CC(=O)NCCN(C)C)n1	7	0	-34	-0.4	-4%	Arbovirus anti repeat=1
COCCCNc1nc2ccccc2nc1NS(=O)(=O)c1cccc(Cl)c1	.	-5	.	-0.7	.
CCN(Cc1cccc(OC)c1)CC1CCCN(CCc2cccc(OC)c2)C1 (centres undefined)	.	2	.	0.4	.
Cc1ccc2c(c1)C(c1ccccc1)N(C(=O)c1cccc([N+](=O)[O-])c1)CC(=O)N2 (centres undefined)	.	-5	.	2.3	.
CSc1nncc(-c2ccccc2)n1	-3	-4	.	-2.9	-13%
O=C(CCn1c(=O)oc2ccccc21)N1CCN(c2ccccc2F)CC1	-5	?	-36	3.0	-1%

Gathered by group, the compounds so far with a tert-butyl group (2)
SMILES	Arbovirus anti	Mtb betalactam	YopH inh	RecA intein inh	Mtb H37Rv	others
COC(=O)c1sc(C(F)(F)F)c(-c2ccccc2)c1S(=O)(=O)NC(C)(C)C	.	0	.	4.0	-3%
CC(C)(C)C1CCC(=NNc2ccc(S(N)(=O)=O)cc2[N+](=O)[O-])CC1 (centres undefined)	-6	3	-27	-1.4	-2%
